Mtb MbtI inh: blocks the Mycobacterium tuberculosis siderophore enzyme MbtI; inhibition, %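 (about 17 µg/mL by stock and volumes)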; purified MbtI enzyme, fluorescence intensity read-out; 0.89% of 100,000 active; P9WFX0;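 active means above 50% in both replicates, above 80% if mildly self-fluorescent; inactive means the rest, strongly fluorescent compounds included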;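 further: 0% = mean of negative and 100% = mean of positive controls; one replicate is shown; some compounds called inactive have numbers as strong as hits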
Target sequence (P9WFX0 whole entry, looked up): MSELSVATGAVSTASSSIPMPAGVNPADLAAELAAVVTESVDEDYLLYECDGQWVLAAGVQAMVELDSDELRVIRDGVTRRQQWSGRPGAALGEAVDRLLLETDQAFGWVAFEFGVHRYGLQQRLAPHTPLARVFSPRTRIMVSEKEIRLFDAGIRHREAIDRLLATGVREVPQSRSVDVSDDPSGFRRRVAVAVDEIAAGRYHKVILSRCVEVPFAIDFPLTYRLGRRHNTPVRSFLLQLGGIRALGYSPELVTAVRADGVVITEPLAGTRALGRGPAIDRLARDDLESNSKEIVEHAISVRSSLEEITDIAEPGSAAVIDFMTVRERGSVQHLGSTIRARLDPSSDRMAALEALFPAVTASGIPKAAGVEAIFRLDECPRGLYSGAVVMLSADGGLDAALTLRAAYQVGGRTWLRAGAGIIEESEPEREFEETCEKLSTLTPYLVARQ
PV pol inh: poliovirus RNA polymerase inhibition; poliovirus polymerase elongation, fluorescence polarization; hits give low values; % elongation, % (compound at 16.7 µg/mL); 0.66% of 150,000 active; AID 588519; in the data active means % elongation below about 90%; further: some results filed as inactive read as strong as hits
Mtb MenB inh: inhibitors of Mycobacterium tuberculosis MenB enzyme | P9WNP5 | MenB enzyme assay, absorbance read-out; some hits fall short of the stated cut | inhibition, %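 (about 12 µg/mL by stock and volumes)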 | 0.43% of 100,000 active | AID 540299;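 active means mean of two replicates above 30%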;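 further: 0% = no compound and 100% = wells with inactive enzyme; the first replicate is given; strong numbers were not always called active; inactives centre near -10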
Target sequence (P9WNP5 whole entry, looked up): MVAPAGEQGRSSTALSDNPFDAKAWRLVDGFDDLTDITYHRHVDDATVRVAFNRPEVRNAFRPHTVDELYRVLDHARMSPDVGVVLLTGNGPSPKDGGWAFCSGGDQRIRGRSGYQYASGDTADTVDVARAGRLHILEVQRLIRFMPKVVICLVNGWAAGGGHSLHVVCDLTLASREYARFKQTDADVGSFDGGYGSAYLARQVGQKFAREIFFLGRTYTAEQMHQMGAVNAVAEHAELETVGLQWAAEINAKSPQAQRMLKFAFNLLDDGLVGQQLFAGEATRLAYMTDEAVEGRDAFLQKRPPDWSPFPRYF
PV pol inh intensity: recorded beside PV pol inh, whose call it bears; % elongation; measured here: total intensity read-out; formula for this scale not given here;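 total fluorescence in place of polarization; lower means less elongation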
Numbers without * were called inactive; i = inactive; · = no result given.

SMILES	Mtb MbtI inh	PV pol inh	PV pol inh intensity	Mtb MenB inh
Cc1cccc(OC(C)C(=O)Nc2ccc(S(N)(=O)=O)cc2)c1 (configuration not stated)	13.3	98.0	102.0	-8.3
O=C(O)CSc1nc2ccccc2c(=O)n1Cc1ccco1	0.2	105.0	100.0	-66.7
N=c1c2c3c(sc2ncn1Nc1ccccc1)CCC3	-5.9	102.0	98.0	2.4
COc1cc(C(=O)NCC2COc3ccccc3O2)cc(OC)c1C (configuration not stated)	4.0	98.0	93.0	-24.8
O=C(COc1nc2ccccc2nc1N1CCOCC1)N1N=C(c2ccc(Cl)cc2)CC1c1ccco1 (configuration not stated)	i	113.0	115.0	-27.4
COc1ccc(C2NCC3(C)CN2CC(C)C3O)cc1OC (configuration not stated)	·	107.0	106.0	-6.0
Cn1ccnc1SCC(=O)Nc1cccc2ccccc12	-5.5	104.0	109.0	-3.6
CSc1nc2nc3c(cn2n1)C(=O)CCC3	23.0	101.0	102.0	4.5
CN(c1nc(-c2ccc(Br)cc2)cs1)C1CCS(=O)(=O)C1 (configuration not stated)	-5.1	101.0	101.0	-18.7
COc1ccc(NC(=O)CN(C)C(=O)Cc2c[nH]c3ccccc23)cc1	-13.3	106.0	113.0	-6.2
c1csc(-c2nc(NC3=NCCCCC3)sc2-c2cccs2)c1	-46.0	106.0	115.0	-8.6
COc1ccccc1/C=C1/C(=O)N(C2CCCCC2)C(=S)N1C	0.9	105.0	104.0	-14.2
COc1ccc(Cc2nnc(SCC(=O)N(c3ccccc3)C(C)C)n2N)cc1OC	24.1	104.0	106.0	-9.8
CCOC(=O)C1NCCc2ccccc21 (configuration not stated)	·	99.0	94.0	-3.6
N=c1n(-c2ccccc2)c(=N)n(-c2ccccc2)c(=N)n1-c1ccccc1	-1.1	104.0	104.0	-77.5
O=c1cc(CN2CCN(Cc3ccccc3)CC2)occ1OCc1cccc(F)c1	-3.3	103.0	99.0	-6.4
Cc1ccc(-c2nnc(N3CCOCC3)c3ccccc23)cc1S(=O)(=O)NC(C)(C)CO	·	102.0	109.0	-5.8
CCCCN(C(=O)c1nc2nccc(C)n2n1)c1ccccc1	11.2	107.0	111.0	-11.1
CN(C)C(CNc1ncnc2cc(Cl)ccc12)c1ccco1 (configuration not stated)	-0.2	107.0	118.0	-20.7
CC(C)(C)NC(=O)CN1CCN(Cc2c(O)c(C(=O)N3CCOCC3)cc3ccccc23)CC1	3.7	102.0	101.0	6.1
O=C(c1ccc(N2CCCC2=O)cc1)N1CCc2ccccc2C1	-15.5	104.0	109.0	-4.2
CCCC(=O)Nc1ccc2c(C)cc(C)nc2n1	1.8	97.0	101.0	0.5
CN(CCc1ccccn1)C(=O)c1cccc(Oc2ccccc2)c1	-20.4	106.0	106.0	-5.6
COc1ccc(O)c(C(=O)c2cc(C#N)c(=O)n(-c3c(C)n(C)n(-c4ccccc4)c3=O)c2)c1	-0.9	102.0	107.0	-18.8
O=C(O)CS(=O)(=O)c1nc2ccccc2s1	20.3	103.0	99.0	6.4
CC(Oc1ccc(C#N)cc1)C(=O)O (configuration not stated)	-7.3	100.0	101.0	-4.6
Cc1ccc(/C=N/NC=O)o1	42.0	98.0	96.0	-0.8
O=C(c1ccc(/C=C2\Sc3ccccc3N(Cc3ccccc3F)C2=O)cc1)N1CCN(C(=O)c2ccco2)CC1	5.6	99.0	101.0	5.2
COC(=O)[C@@]1(C)CCCC2(C)c3ccc(C(C)C)cc3CCC21 (some centres not stated)	-214.6	102.0	107.0	-14.4
O=C(CSc1nnc(-c2cccs2)n1-c1ccccc1)OC1CCS(=O)(=O)C1 (configuration not stated)	-45.0	102.0	109.0	-25.9

Gathered by group: those above with an aryl methoxy group (6)
SMILES	Mtb MbtI inh	PV pol inh	PV pol inh intensity	Mtb MenB inh
COc1cc(C(=O)NCC2COc3ccccc3O2)cc(OC)c1C (configuration not stated)	4.0	98.0	93.0	-24.8
COc1ccc(C2NCC3(C)CN2CC(C)C3O)cc1OC (configuration not stated)	·	107.0	106.0	-6.0
COc1ccc(NC(=O)CN(C)C(=O)Cc2c[nH]c3ccccc23)cc1	-13.3	106.0	113.0	-6.2
COc1ccccc1/C=C1/C(=O)N(C2CCCCC2)C(=S)N1C	0.9	105.0	104.0	-14.2
COc1ccc(Cc2nnc(SCC(=O)N(c3ccccc3)C(C)C)n2N)cc1OC	24.1	104.0	106.0	-9.8
COc1ccc(O)c(C(=O)c2cc(C#N)c(=O)n(-c3c(C)n(C)n(-c4ccccc4)c3=O)c2)c1	-0.9	102.0	107.0	-18.8

Further records:
SMILES	Mtb MbtI inh	PV pol inh	PV pol inh intensity	Mtb MenB inh
COc1ccc(CNC(=O)c2cc(C(C)C)on2)cc1	-17.2	102.0	103.0	-2.8
O=C(Nc1nc2ccccc2[nH]1)C1CC(=O)N(CCc2ccccc2)C1 (configuration not stated)	28.4	107.0	103.0	-22.5
CCSc1ncc(S(=O)(=O)c2ccccc2)c(N)n1	-12.8	104.0	101.0	-22.8
CC(=NCc1ccco1)C1=C(O)c2ccccc2C1=O	39.0	103.0	100.0	-25.3
O=C(Nc1nc2ccc(Oc3ccccc3)cc2s1)c1ccco1	65.1	97.0	92.0	-13.1
O=C(Nc1cccc(F)c1)[C@H](Cc1ccccc1)N1Cc2ccccc2C1=O	-8.8	100.0	105.0	-20.4
COc1cccc(NC(=O)COC(=O)CCC2CCCC2)c1	-22.4	100.0	101.0	-18.4
CC(OC(=O)CCN1C(=O)c2ccccc2C1=O)c1ccccc1 (configuration not stated)	-11.2	106.0	101.0	-32.2
CCCN1C/C(=C/c2ccc(OC)cc2)C(=O)/C(=C/c2ccc(OC)cc2)C1	-2.4	103.0	110.0	-17.6
C/C(=N\NC(=O)Cc1ccc(F)cc1)c1ccc(O)cc1	8.4	103.0	101.0	5.2
Cn1nc(C(F)(F)F)c(-c2ccccc2)c1N1C(=O)C2C3C=CC(C3)C2C1=O (configuration not stated)	0.7	102.0	92.0	-20.2
O=C(CN1CCOc2ccccc21)NCc1ccc(Cl)cc1	0.9	99.0	102.0	4.5
N#Cc1c(SCc2ccccc2F)nc(C(F)(F)F)c2c1CCC2	68.2	95.0	99.0	-21.2
CNC(=O)CSc1nc2ccccc2c(=O)n1C1CCCCC1	-16.6	104.0	104.0	-7.8
CSc1ccccc1NC(=O)CN(C)Cc1nnc(-c2ccccc2)o1	-20.5	105.0	116.0	-3.0
Nc1nonc1C(=O)NCCN=Cc1ccccc1O	5.8	106.0	101.0	-8.7
CCCN(S(=O)(=O)c1ccc(C)cc1)S(=O)(=O)c1ccc(Cl)cc1	1.8	100.0	107.0	0.6
CCOc1ccc2nc3c(c(C(=O)O)c2c1)CCCC3	·	101.0	100.0	-1.3
COc1ccc(C#N)c(S(=O)Cc2ccccc2)c1 (configuration not stated)	·	103.0	111.0	-13.9
CC(C)(C)C1CCC(OCC(O)CN2CCCCCC2)CC1 (configuration not stated)	-8.6	102.0	106.0	·
CSc1nc(N)c(C(=O)Nc2ccc(N(C)C)cc2)s1	·	96.0	97.0	-43.6
Cc1cccc(-c2noc(NC(=O)NNc3c(Cl)cccc3Cl)n2)c1	15.0	103.0	96.0	6.4
COc1ccc(CCNC(=S)N2CCCCC2C(N)=O)cc1 (configuration not stated)	14.6	100.0	105.0	5.3
CN(C(=S)Nc1ccccc1)C1CCC(C2OCCO2)CC1O (configuration not stated)	7.3	102.0	98.0	8.7
CCC(=O)Nc1nc2ccc(OC)cc2s1	·	102.0	105.0	-12.5
COc1ccc(/C=C/C(=O)NC(N)=S)cc1	6.0	107.0	112.0	-34.6
FC(F)(F)c1ccc(Cl)nc1	0.4	101.0	104.0	·
Cc1cc(C)c2c(n1)SCC(=O)N2CC(=O)Nc1cccc(Cl)c1	-7.0	100.0	104.0	1.1
CCc1ccc(CNC(=O)CCC(=O)N2CCCn3nc(C)cc32)cc1	-9.2	103.0	102.0	-25.8
Cc1ccccc1NC(=O)C(C)Sc1nc2ccccc2c(=O)n1C (configuration not stated)	-3.5	102.0	102.0	-26.0
O=C(NCc1ccco1)c1cccc(S(=O)(=O)Nc2ccc(Br)cc2)c1	-9.2	106.0	120.0	-0.6
COc1cccc2c(=O)c(NC(=O)NCCCN3CCN(C)CC3)c[nH]c12	112.2	101.0	102.0	-4.9
CCOC(=O)C1CCN(C(=O)c2ccc3snnc3c2)CC1	10.6	101.0	98.0	9.1
CCOC(=O)c1cc(-c2ccccc2)n(CCCC(=O)N2CCCCC2)c1C	-7.9	101.0	105.0	-29.3
S=C(Nc1cccnc1)N1CCCCC1	3.3	102.0	98.0	-16.6
O=C(c1ccccc1)c1nc2ccccc2s1	-14.8	103.0	106.0	·
O=C(Cn1cnc2sccc2c1=O)NCCC1=CCCCC1	4.2	109.0	108.0	-10.1
O=C1CC(c2ccco2)CC(O)=C1C=Nc1cc(Cl)ccc1Cl (configuration not stated)	77.0	101.0	102.0	-34.7
CCC(CO)NC1CC(C)N(C)CC1C (configuration not stated)	0.4	102.0	106.0	-8.1
O=S(=O)(c1ccc(Cc2ccc(S(=O)(=O)N3CCCCC3)cc2)cc1)N1CCCCC1	-9.9	101.0	107.0	-5.2
Nc1ccc2c(c1)S(=O)(=O)c1cc(N)ccc1O2	-12.1	101.0	99.0	-36.6
O=C(c1ccc(CSc2nc3ccncc3n2Cc2ccc(F)cc2)cc1)N1CCCCC1	2.4	105.0	103.0	-12.2
FC(F)(F)C1=CC=NCCN1	3.5	99.0	98.0	-9.2
COc1ccc(C)cc1NC(=O)C(=S)NCc1ccco1	·	102.0	103.0	-20.4
Cc1nn(C(=O)c2cc3c(s2)CCCC3)c(C)c1Sc1ccc(Br)cc1	13.1	98.0	100.0	-18.2
CCCN(C(=O)Cn1ncc2c1-c1ccccc1OC2)c1ccc(Cl)c(Cl)c1	7.0	102.0	104.0	-0.1
CCOC(=O)C1=NN(c2ccccc2)C(=C2C(=O)c3ccccc3C2=O)C1c1cccs1 (configuration not stated)	-6.8	106.0	110.0	4.6
CN(C)S(=O)(=O)c1ccc2nnn(OCC(=O)NCCc3ccc(Cl)cc3)c2c1	-3.9	106.0	109.0	6.0
CCCN(CCC)C(=O)Cn1c(SCc2cccc(F)c2)nc2ccncc21	2.7	103.0	99.0	-11.0
CN(C)C=C1C(=O)N(C2CCCCC2)C(=O)N(C2CCCCC2)C1=O	5.4	99.0	105.0	11.2

A draw from above in order of heavy-atom count, smallest number first:
SMILES	Mtb MbtI inh	PV pol inh	PV pol inh intensity	Mtb MenB inh
FC(F)(F)c1ccc(Cl)nc1	0.4	101.0	104.0	·
CSc1nc2nc3c(cn2n1)C(=O)CCC3	23.0	101.0	102.0	4.5
COc1ccc(C#N)c(S(=O)Cc2ccccc2)c1 (configuration not stated)	·	103.0	111.0	-13.9

(further entries)
SMILES	Mtb MbtI inh	PV pol inh	PV pol inh intensity	Mtb MenB inh
Cc1cc(N2CCCCC2C)n2ncnc2n1 (configuration not stated)	8.3	102.0	100.0	-15.0
Cc1nc2c(cnn2-c2ccccc2)c(=O)[nH]1	-7.4	104.0	108.0	·
Cc1nc(-c2cccnc2)cs1	6.5	101.0	97.0	-14.1
COc1ccc(-c2cc(O)cc3sc(=O)oc23)cc1	61.8	105.0	102.0	-9.4
O=C1CCN(S(=O)(=O)c2ccc(Cl)c(Cl)c2)CC1	20.5	102.0	104.0	7.5
Cc1cccc(C(CC(=O)N2CCCC2)n2cccc2)c1 (configuration not stated)	-25.9	99.0	103.0	-10.5
CC(C)CCNC(=O)CN1C(=O)C2CC=CCC2C1=O (configuration not stated)	-33.9	98.0	102.0	6.7
N#Cc1ccc(C2NC(=O)NC3=C2C(=O)OC3)cc1 (configuration not stated)	1.6	104.0	104.0	-6.9
CC(=O)Nc1ccc(N=Cc2ccc(N3CCOCC3)cc2)cc1	·	107.0	104.0	-4.9
CCN(CC)c1ccc2cc(C(=O)Nc3cccc(OC)c3)c(=O)oc2c1	-5.3	103.0	103.0	-24.7
NCc1ccc(C(F)(F)F)cc1	-5.8	107.0	110.0	-11.3
CCOC(=O)c1cc(C(C)C)sc1NC(=O)COC(=O)c1ccc(C)o1	-4.6	102.0	106.0	2.0
Cc1cc(/C=C/C(=O)Nc2nccs2)c(C)n1-c1ccccc1	0.6	118.0	135.0	-38.1
c1ccc2c3c([nH]c2c1)CCC3	-28.5	98.0	106.0	-3.9
N#CCOC(=O)c1ccc(Br)o1	-1.1	106.0	110.0	3.5
CCOCC(=O)N1CCC(C(=O)OCC)CC1	-14.5	101.0	105.0	12.7
Cc1cc(NC(NC(=O)N(C)C)(C(F)(F)F)C(F)(F)F)no1	0.7	106.0	100.0	-10.8
COc1cccc(/C=N/NC(=O)C2CC23CCC3)c1O (configuration not stated)	24.6	100.0	103.0	-83.6
Cc1ccc(S(=O)(=O)N(C)c2nc3ccccc3nc2NCCCN(C)C)cc1	15.6	101.0	101.0	-19.7
Cc1ccc(C)c(NC2=NCCS2)c1	1.4	99.0	103.0	15.1
Cn1cnnc1Sc1ccc(Cl)cc1NC(=O)Cn1c(=O)cnc2ccccc21	51.6	99.0	105.0	1.1
CCOC(=O)c1ccc(N2CCOCC2)c(NC(=O)c2nccnc2C(=O)O)c1	15.2	106.0	102.0	-13.4
O=C(O)c1cccc(N2CCCCC2)c1	70.8	103.0	102.0	-19.8

Screening data as filed in PubChem.
